Source: PubChem BioAssay
gsp antag: qHTS for Antagonists of gsp, the Etiologic Mutation Responsible for Fibrous Dysplasia/McCune-Albright Syndrome: qHTS | gsp-mutant cells, cAMP HTRF, 30 min; control for the full effect not named in the record | Potency, µM (highest dose often 76.9 µM), for the others: top-dose activity change, negative = inhibition, actives largely listed as inhibitors | actives 0.4% (n = 340,000); active = falling curve of any shape with a large fitted effect; inconclusive = falling curve, mostly with a smaller effect; inactive = flat or rising curve; cell line not stated here;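 further: intracellular cAMP measured with PDE inhibitor Ro 20-1724 present during compound exposure; potency means the concentration at half of the fitted maximal effect; on the % scale 0 is the no-effect control and ±100 the full control effect; nearly all actives have a fitted effect of over 65% in size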
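G418-selected cells were plated in DMEM/10% FBS for 16-24 h at 37C, then treated with compounds plus the PDE inhibitor […] (300 uM solution added) for 30 min at 37C. Intracellular cAMP was measured by HTRF after 30 min lysis at room temperature.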
gsp agonist: qHTS for Agonist of gsp, the Etiologic Mutation Responsible for Fibrous Dysplasia/McCune-Albright Syndrome: qHTS. gsp mutant cells, cAMP HTRF, 30 min; control for the full effect not named in the record. AID 624287, 2012. actives 0.13% (n = 340,000). Potency, µM (top dose mostly 76.9 µM), inactives show top-dose activation (cAMP increase), hits mostly activators; active = well fitted activation curve with a large enough effect; inconclusive = small, poorly fitted or top-dose-only effect, or another doubt; inactive = no such curve, though single readings can be large or run the other way; cell line not stated here;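 further: phosphodiesterase inhibitor Ro 20-1724 added with compounds to block cAMP breakdown; potency means the concentration at half of the fitted maximal effect; nearly all actives have a fitted effect of over 60% in size; about a fifth of the inactives were tested at one dose only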
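Cells stably selected in G418 were plated at 2000/well, grown 16-24 hr, then given compounds in DMSO with the PDE inhibitor […] (300 uM solution added) for 30 min at 37C; cAMP was read by HTRF.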
Menin-MLL FL inh: qHTS Assay for Inhibitors Targeting the Menin-MLL Interaction in MLL Related Leukemias: Competition With Fluorescein Labeled MLL-derived Peptide | Fluorescence polarization, fluorescein-MLL peptide displacement from menin | FP activity change, % at 61.4 µM | 290,000 tested, under 10 active; inconclusive = falling polarisation curve, or a change in total fluorescence; inactive = total fluorescence flat and polarisation flat or rising; no compound was filed as active; the % refers to the polarisation; negative = inhibition;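 further: % of control where 0% means no effect; inhibitors lower the polarisation; unlabelled MLL peptide was the positive control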
D2 ag: Beta-Arrestin HTS for Positive Allosteric Modulators of the Human D2 Dopamine Receptor: Agonists | DiscoveRx PathHunter D2 beta-arrestin, luminescence, 90 min; 100% = 57 uM dopamine signal | actives 0.084% (n = 360,000) | activation, % (no concentration beside the values); in the data active = activation above about 40%; inconclusive = about 15% to 40%; inactive = below about 15%; further: compound concentration not given in the record; the text of the record calls up to 30% inactive
Target sequence (P14416 whole entry, looked up): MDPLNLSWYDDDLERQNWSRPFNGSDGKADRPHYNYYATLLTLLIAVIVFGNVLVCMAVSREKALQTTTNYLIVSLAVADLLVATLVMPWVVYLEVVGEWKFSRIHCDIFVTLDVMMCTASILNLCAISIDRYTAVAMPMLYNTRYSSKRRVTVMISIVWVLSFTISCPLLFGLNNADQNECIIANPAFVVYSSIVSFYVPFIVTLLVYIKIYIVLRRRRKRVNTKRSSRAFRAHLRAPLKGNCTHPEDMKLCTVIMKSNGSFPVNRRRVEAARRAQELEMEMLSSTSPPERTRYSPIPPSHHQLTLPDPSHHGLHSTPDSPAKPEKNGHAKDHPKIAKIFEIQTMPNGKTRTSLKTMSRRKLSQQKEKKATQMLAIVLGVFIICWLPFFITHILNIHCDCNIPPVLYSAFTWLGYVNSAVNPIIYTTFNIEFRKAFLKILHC
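DiscoveRx PathHunter D2 beta-arrestin cells (2,100/well) attached overnight, then compound-stimulated 90 min at 37 C in HBSS/10 mM HEPES/0.1% Tween-20 buffer; beta-galactosidase complementation read by luminescence after 1 h at ambient temperature. Dopamine 57 uM final (EC100) as control.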
PINK1 modulator: A Quantitative High throughput Screen to Identify Chemical Modulators of PINK1 Expression; Potency, µM (highest dose often 76.6 µM), for inactives: top-dose activation (PINK1 increase), most hits filed as activators; PINK1 immunofluorescence, high-content cytometry, 24 h; AID 624263, 2012; actives 0.2% (n = 410,000); active = well fitted activation curve with a large enough effect; inconclusive = small, poorly fitted or top-dose-only effect; inactive = flat fitted curve, though single readings scatter; cell line not stated here;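 further: potency means the concentration at half of the fitted maximal effect; % of control where 0% means no effect; nearly all actives have a fitted effect of over 65% in size; a mitochondrial uncoupler was the plate control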
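Readout is PINK1 immunofluorescence, quantified alongside mitochondrial, cell and nuclear markers by laser-scanning microplate cytometry. Cells from a stable line were exposed to compound titrations (5 concentrations) for 24 hours, with CCCP controls.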
ClpP mod: qHTS Assay for Activators of ClpP. Potency, µM (highest dose often 57.5 µM), inactives show top-dose activity change, negative = active. purified B. subtilis ClpP, FRET peptide cleavage, 20 min. actives 1.9% (n = 340,000). AID 651965, 2013; active = well fitted falling curve with a large enough effect; inconclusive = small, poorly fitted or top-dose-only effect; inactive = no such curve, though single readings can be large or run the other way; further: potency means the concentration at half of the fitted maximal effect; the source files actives as falling curves though it sought activators and does not explain the sign; nearly all actives have a fitted effect of over 65% in size; many hits overshoot -100%
Target sequence (P80244 whole entry, looked up): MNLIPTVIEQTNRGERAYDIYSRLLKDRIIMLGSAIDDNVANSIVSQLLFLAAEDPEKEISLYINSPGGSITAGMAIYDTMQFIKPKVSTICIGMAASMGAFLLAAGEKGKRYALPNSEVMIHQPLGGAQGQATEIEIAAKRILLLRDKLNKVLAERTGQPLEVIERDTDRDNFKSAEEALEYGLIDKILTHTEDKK
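ClpP 10 microg/mL final, pH 8 Tris/KCl buffer with BSA, glycerol, Tween-20; compound pinned in; FRET-FV substrate; RT 20 min; Ex320/Em430; ΔFRET vs ADEP 5.8 microM, DMSO, no enzyme.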
Sfp PPTase inh: qHTS Assay for Inhibitors of Bacillus subtilis Sfp phosphopantetheinyl transferase (PPTase); Biochemical Sfp PPTase activity, qHTS; Potency, µM, for the others: max response, negative = inhibition, actives largely listed as inhibitors; actives 3.5% (n = 310,000); AID 1490, 2009; active means well fitted inhibition curve with a large enough effect; inconclusive means small, poorly fitted or top-dose-only effect, or another doubt; inactive means no such curve, though single readings can be large or run the other way;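 further: the enzyme is Sfp with the accession as filed and its product quenches rhodamine fluorescence; potency means the concentration at half of the fitted maximal effect; 0% = enzyme reaction without inhibitor and -100% = no enzyme wells; top concentration of the series not given in the record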
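Buffer: 50 mM Hepes-Na pH 7.6, 10 mM MgCl2, 0.01% Nonidet P-40, 0.01% BSA. Enzyme 15 nM, pre-exposed to compound 15 min; substrates then added and fluorescence change tracked over 30 min.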
* marks the source's active call; other numbers are inactive results; ? = inconclusive; . = not tested or not shown; [ ] = another dose, or the depositor's remark. Rows were taken by chance; any-hit rate near 5.1%.

molecule,D2 ag,PINK1 modulator,Sfp PPTase inh,ClpP mod,gsp antag,gsp agonist,Menin-MLL FL inh
Cc1cccc(CCNS(=O)(=O)c2ccc3c(c2)NC(=O)C(C)S3)c1 (centres undefined),-2.3,3.2%,1.9%,-0.5%,0.1%,-30.5%[inhibitor],0.3
C/C(=N\Nc1ccc(F)cc1)c1ccc(N2CCOCC2)c(F)c1,3.4,-0.6%,-5.8%,-12.6%,1.0%,12.1%,15.3
CCOC(=O)Cn1c(=O)c2c(nc3n2CCS3)n(C)c1=O,-0.7,-3.3%,17.3%,-0.9%,6.6%,17.2%,-1.8
COc1ccc(Cc2c(-c3ccc(F)cc3)nc3ccc(Br)cn23)c(C)c1,-2.2,29.6%,.,-5.6%,.,.,.
CCN(CC(=O)Nc1ccc(NC(C)=O)cc1)C(=O)CCCc1nc2ccccc2s1,1.3,0.4%,.,0.2%,4.0%,-1.8%,.
CCC(=O)Nc1cccc(C(=O)c2ccc(C)c(C)c2)c1,2.1,1.5%,3.5%,.,-10.5%,-2.6%,-1.2
COc1ccc(S(=O)(=O)NCCCCC(=O)O)cc1C(=O)O,1.9,3.5%,14.2%,0.8%,12.3%,-8.3%[15.4 µM],-2.9
S=C(NCc1ccc2[nH]c3c(c2c1)CCCC3)Nc1ccccc1Cl,-1.2,18.5%,-9.8%,-2.1%,1.9%,-41.1%[inhibitor],0.6
CCN(N=O)[C@@H](Cc1ccccc1)CN(N=O)[C@@H](Cc1ccccc1)CN(C)N=O,3.0,1.2%,7.8%,1.4%,-5.1%,.,0.8
O=S1(=O)CCN2C(Cc3ccc(SC(F)F)cc3)=CSC2=N1,0.5,1.1%,1.1%,-1.5%,31.6µM*,?,-0.1
Cc1cccc(OC(C)C(=O)N2CCc3ccccc3C2)c1 (centres undefined),3.3,0.6%,2.3%,0.5%,2.6%,-27.5%,-4.9
CN(CC(=O)NC1CCCCC1)S(=O)(=O)c1cccc2cccnc12,-4.9,0.0%,26.1%,-0.1%,-0.6%,-23.6%,-1.1
C#CCNS(=O)(=O)c1ccc(F)cc1Br,3.7,0.6%,.,0.8%,12.6%,.,.
Cc1cc(NC(=O)CCCn2ccc([N+](=O)[O-])n2)n(Cc2ccc(F)cc2)n1,-1.4,2.5%,15.5%,67.6%,12.4%,-1.5%[15.4 µM],2.5
O=C(c1ccc2nc(-c3ccccc3)c(-c3ccccc3)nc2c1)N1CCCCC1,-1.5,1.8%,6.4%,3.5%,-18.9%,-0.9%,5.3
O=C(CC(Nc1ccccc1)c1ccccc1)C1CC1 (centres undefined),-2.7,0.7%,6.1%,?,4.6%,-10.5%[15.4 µM],-2.4
CN(CC(=O)Nc1cccc(F)c1)C(=O)c1ccc(OCC2CCCO2)cc1 (centres undefined),-3.3,1.2%,17.4%,-0.6%,12.0%,39.5%,1.2
O=C(Cc1ccc(NC(=O)C2CCN(C(=O)C3CC3)CC2)cc1)Nc1cccc(C(=O)N2CCCCC2)c1,0.6,-0.3%,.,0.3%,0.3%,.,.
CCCCCCn1c(C)nc2c(c1=O)c1nc3ccccc3nc1n2/N=C/c1ccco1,-3.8,1.5%,-11.3%,-6.8%,-3.6%,-10.5%,10.3
C/C(=N\N(Cc1ccccc1)c1ccccc1)c1cccnc1,6.4,11.6%,-13.2%,-0.7%,-8.8%,?,-2.6
Cc1ccccc1NC(=O)C1(C)Cc2ccccc2C(=O)O1 (centres undefined),-2.5,-0.6%,-12.6%,-1.6%,-5.2%,-18.1%,-0.5
COc1cc(C(C)=O)ccc1OCC(O)CN1CCN(c2ccc(C)c(C)c2)CC1 (centres undefined),1.8,-0.1%,11.0%,-0.1%,12.1%,6.6%[15.4 µM],-0.4
CCC(C)C(NC(=O)[C@@H](NC(=O)c1ccccc1F)C(C)C)C(=O)OC (some centres undefined),-2.6,-0.9%,10.4%,-1.4%,8.5%,-14.2%,3.4
O=C(NCc1cccnc1)c1cccc(F)c1,-2.2,-2.4%,16.7%,-0.7%,6.1%,5.5%,-0.1
CC(C)NC(=O)N1CCN(c2ccncc2S(=O)(=O)N2CCOCC2)CC1,-1.3,-1.0%,6.7%,-2.8%,3.9%,-37.1%,0.5
Cc1nc(-c2ccc(S(=O)(=O)Oc3ccc(Cl)cc3Cl)s2)cs1,0.3,5.7%,?,-5.4%,-12.9%,-19.7%[15.4 µM],3.2
O=C(Cc1ccc(Cl)cc1)Nc1cc(Cl)ccn1,7.0,10.4%,.,.,8.0%,4.3%,.
CCCCOc1ccc(C(=O)NNC(=O)C2C3C=CC(C3)C2C(=O)O)cc1 (centres undefined),1.1,-0.1%,44.7µM*,0.1%,9.9%,5.1%,.
N#Cc1c(-c2ccco2)cc(-c2ccccn2)nc1N,0.1,-0.1%,?,5.8%,1.3%,?,-1.7
Cc1ccc2c(c1)C=CC(C)(C)S2=O (centres undefined),4.1,1.6%,7.6%,-2.0%,3.8%,-7.7%[15.4 µM],-0.4
CN(C(=O)COC(=O)/C=C/c1ccc(F)cc1)c1c(N)n(Cc2ccccc2)c(=O)[nH]c1=O,-0.5,?,.,-28.6%,2.4%,6.6%,.
Cc1ccc(-c2csc3nnc(SCc4csc(C)n4)n23)cc1,3.9,3.8%[38.3 µM],5.0%,-0.2%,-14.9%,0.2%,-1.5
CC(=O)Nc1nc(C)nc(-c2ccccc2OC(C)=O)n1,2.9,-7.6%[38.3 µM],13.2%,0.4%,0.5%,-0.6%,0.1
C=CCSc1nnc(NC(=O)CCN2C(=O)C3CC=CCC3C2=O)s1 (centres undefined),-5.6,0.2%,.,1.4%,6.9%,-9.3%,.
c1ccc(CSc2nnc3ccc(-c4ccncc4)nn23)nc1,4.5,0.1%,9.9%,0.7%,5.3%,?,1.3
CCO[C@H]1OC(C(=O)NC2CC2)=C[C@@H](c2csc3ccccc23)[C@@H]1CCCO,3.6,0.9%,8.0%,0.7%,2.7%,.,0.5
COc1ccccc1NC(=O)CN1CCN(CC(=O)Nc2ccc3c(c2)OCO3)CC1,3.5,-0.8%,-20.8%,-0.6%,-11.4%,-36.9%[inhibitor],3.4
O=C1CC(c2cccs2)CC2=C1C(c1ccccc1)n1ncnc1N2 (centres undefined),0.1,0.9%,14.6%,-12.2%,-1.6%,19.1%,1.3
CCOC(=O)C[n+]1c(C)sc2ccc(OC)cc21,-13.8,-1.3%,1µM*,1.7%,8.8%,-26.3%,4.6
COc1ccc(CC(=O)OCc2cc3ccc(C)cc3[nH]c2=O)cc1,-1.3,0.9%,0.9%,-8.4%,0.8%,-27.1%,-1.2
O=C(O)c1ccc(N=N/C(=N\Nc2ccc(C(=O)O)cc2)c2ccccc2)cc1,-8.5,0.6%,.,2.7%,-4.7%,-0.9%,.
COc1ccc(Cl)cc1NC(=S)Nc1cccc(C)c1,-1.8,0.3%,-16.3%,.,-21.8%,-9.2%[15.4 µM],-4.7
COc1ccc(-c2cc(C(=O)NCc3ccc(Cl)cc3)no2)cc1OC,2.4,?,16.5%,-6.6%,12.3%,2.9%,1.2
O=C(/C=C/c1ccc(-c2ccc(F)cc2)o1)N1CCCC1,6.1,-0.2%,-12.5%,.,-13.7%,-53.8%[inhibitor],-2.1
Cc1ccc(OCC(=O)N(C)CC(=O)Nc2ccc(N3CCOCC3)cc2)cc1,-2.9,1.1%,.,-2.3%,3.4%,-2.8%,.
O=C(CSc1ncn[nH]1)Nc1cc(S(=O)(=O)N2CCCC2)ccc1Cl,-2.8,1.1%,-13.0%,-26.8%,-27.4%,28.8%[15.4 µM],-3.0
Cc1cc([N+](=O)[O-])ccc1NC(=O)C(C)[n+]1ccccc1 (centres undefined),-5.0,1.7%,22.0%,.,6.1%,15.0%[15.4 µM],5.2
CC(C)N1CCC(NC(=O)NC2CCCCC2)CC1,1.5,6.8%,7.2%,.,15.2%,-1.6%[15.4 µM],-2.6
COc1cccc(/C=N/NC(=O)c2ccc(N(C)S(=O)(=O)c3ccccc3)cc2)c1OC,-0.4,-0.2%,21.3%,-14.2%,1.5%,5.1%,1.5
Cc1ccc(CN2CCN(CC3CC4C=CC3C4)CC2)cc1 (centres undefined),-1.8,0.1%,?,-0.4%,5.6%,20.5%,1.1
Cc1ccc(NC(=O)CN(C)C(=O)c2ccccc2OCc2c(C)noc2C)cc1,-4.0,-0.3%,.,.,11.4%,-22.6%[15.4 µM],.
Cc1noc(/C=C/Nc2ccc(F)cc2F)c1[N+](=O)[O-],-2.9,-2.1%,12.9%,.,-1.0%,2.9%[15.4 µM],8.3
O=C(Nc1nc2c(Cl)cccc2s1)C1CC1,-0.4,1.1%,6.0%,0.3%,-1.2%,-4.6%,-1.6
COC(=O)c1ccccc1S(=O)(=O)N1CCC(C(=O)NC2=NCCS2)CC1,-1.9,-1.2%,.,-4.9%,0.1%,-21.9%,.
CCOCCCn1c(=N)c(C(N)=S)cc2c(=O)n3cccc(C)c3nc21,-4.3,3.2%,-109.3%,28.2µM*,6.4%,?,?
CCOc1ccc(NC(=O)c2cc3cc4ccc(OC)cc4nc3o2)cc1,1.4,-1.6%,2.2%,53.1%,-2.7%,3.1%,1.2
